HCMV NEC inh: inhibitors of HCMV UL50-UL53 interaction, biochemical, HTRF | HCMV UL50-UL53 nuclear egress complex (human cytomegalovirus) | normalized percent inhibition | inhibition, % (concentration not given with the values) | hit rate 0.15% among 190,000;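 active = both replicates at 50% or more, plus weaker picks with an unusually low signal ratio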;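 note: stock transfer was 100 nL into about 20 µL; 0% = negative control wells and 100% = wells with untagged competitor protein; inactives centre near -12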
GIV Gai3 FP: inhibitors of GIV peptide binding to Galpha-i3, primary screen, biochemical, fluorescence polarization, FITC-GIV GBA peptide, rat Galphai3. percent of control (FP), % (test concentration not listed). Guanine nucleotide-binding protein G(i) subunit alpha-3 (Rattus norvegicus), P08753. 90 min; hits give low values; scaled: aluminum fluoride 0%, vehicle 100%. AID 1224905, 2016. hit rate 0.42% among 210,000;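 active = replicate mean at 85% of control or lower, very high polarization wells dropped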;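 note: wells of about 15 µL received 100 nL stock; the first replicate is given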
Target sequence (P08753 whole entry, looked up): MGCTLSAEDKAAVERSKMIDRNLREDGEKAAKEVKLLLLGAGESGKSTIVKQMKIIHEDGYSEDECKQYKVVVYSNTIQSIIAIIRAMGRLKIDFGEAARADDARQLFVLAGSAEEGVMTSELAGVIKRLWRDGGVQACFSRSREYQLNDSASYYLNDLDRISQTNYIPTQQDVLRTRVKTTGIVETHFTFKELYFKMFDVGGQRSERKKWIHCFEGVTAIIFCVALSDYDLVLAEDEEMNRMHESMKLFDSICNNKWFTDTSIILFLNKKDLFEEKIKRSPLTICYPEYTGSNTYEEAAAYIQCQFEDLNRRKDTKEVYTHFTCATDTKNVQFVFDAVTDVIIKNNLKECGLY
Sa growth inh: S. aureus growth inhibition at 42 and 30 °C, primary screen, LtaS inhibitor project, RN4220, two temperatures; OD600, 20 h, 42 °C; hits give low values; relative growth, % (no concentration beside the values); hit rate 0.53% among 170,000;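 active = growth at 42 °C up to 50% and 20 or more points under that at 30 °C, or under 10% at both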;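 note: 300 nL library stock went into each well; scaled to the means of positive and negative controls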
Sa growth inh second temp: second read-out of Sa growth inh, no call of its own (marks repeat the call); relative growth, %; measured here: growth at 30 °C;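 optical density after 20 h as mean of two plates; 100% = untreated growth and lower means inhibition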
Numbers without * were called inactive.

`O=C1c2ccccc2CC1Sc1nnc(-c2ccco2)c(-c2ccco2)n1` (stereo unspecified) gave HCMV NEC inh -14, GIV Gai3 FP 103, Sa growth inh 130 and Sa growth inh second temp 61.
For CCOC(=O)c1[nH]c(C)c(CCC(=O)NCc2ccc(OCC)cc2)c1C the results were GIV Gai3 FP 103, Sa growth inh 105 and Sa growth inh second temp 91.
For CCc1ccc2[nH]c(=O)c(CN(CCN3CCCC3)C(=O)NCc3ccccc3)cc2c1 the results were HCMV NEC inh -18, GIV Gai3 FP 103, Sa growth inh 117 and Sa growth inh second temp 81.
Screening CC(Sc1nnc(Nc2ccccc2F)s1)C(=O)NC1(C#N)CCCCC1 (stereo unspecified) returned HCMV NEC inh 2, Sa growth inh 99 and Sa growth inh second temp 94.
Screening CCOc1ccc(S(=O)(=O)[C@H]2CS(=O)(=O)C[C@@H]2NC(C)C)cc1 returned HCMV NEC inh -12 and GIV Gai3 FP 105.
O=C(O)CSCC(=O)N1CCN(c2ccc(F)cc2)CC1 was read as HCMV NEC inh -29, GIV Gai3 FP 104, Sa growth inh 85 and Sa growth inh second temp 86.
`O=c1oc2ccc(Cl)cc2n1CN1CCCCC1` gave HCMV NEC inh -11, Sa growth inh 98 and Sa growth inh second temp 86.
`CN(CC(=O)Nc1ncc(Cl)cc1Cl)Cc1ccc(Cl)cc1` gave HCMV NEC inh -25, Sa growth inh 93 and Sa growth inh second temp 85.
Screening CCOCCCn1c(SCC(=O)NC2(C#N)CCCCC2)nc2ccccc2c1=O returned HCMV NEC inh 7, Sa growth inh 98 and Sa growth inh second temp 97.
O=C1CCC(C(=O)OCc2ccccc2C(F)(F)F)=NN1 was read as HCMV NEC inh -7, Sa growth inh 73 and Sa growth inh second temp 82.
`Cc1cc(C(=O)N/N=C2\CC(c3ccccc3)Oc3ccccc32)c(C)o1` (stereo unspecified) gave HCMV NEC inh -4, Sa growth inh 104 and Sa growth inh second temp 95.
COc1cccc2sc(Nc3sc4c(c3C(N)=O)CCCC4)nc12 was read as GIV Gai3 FP 148, Sa growth inh 1.1* and Sa growth inh second temp 0.1*.
`CC(=O)Oc1ccc(N(C(C)=O)S(=O)(=O)c2ccc3ccccc3c2)cc1` gave GIV Gai3 FP 102, Sa growth inh 89 and Sa growth inh second temp 78.
For Cc1c(F)cccc1NC(=O)OCc1ccccc1 the results were HCMV NEC inh -6, GIV Gai3 FP 104, Sa growth inh 126 and Sa growth inh second temp 96.
Cc1ccc2[nH]c3c(=O)n(CCC(=O)N4CCN(c5ccccn5)CC4)cnc3c2c1 was read as HCMV NEC inh -21 and GIV Gai3 FP 108.

Fetched by compound from the entries so far (6):
`O=C1c2ccccc2CC1Sc1nnc(-c2ccco2)c(-c2ccco2)n1` (stereo unspecified) gave HCMV NEC inh -14, GIV Gai3 FP 103, Sa growth inh 130 and Sa growth inh second temp 61.
COc1cccc2sc(Nc3sc4c(c3C(N)=O)CCCC4)nc12 was read as GIV Gai3 FP 148, Sa growth inh 1.1* and Sa growth inh second temp 0.1*.
O=C1CCC(C(=O)OCc2ccccc2C(F)(F)F)=NN1 was read as HCMV NEC inh -7, Sa growth inh 73 and Sa growth inh second temp 82.
`Cc1cc(C(=O)N/N=C2\CC(c3ccccc3)Oc3ccccc32)c(C)o1` (stereo unspecified) gave HCMV NEC inh -4, Sa growth inh 104 and Sa growth inh second temp 95.
O=C(O)CSCC(=O)N1CCN(c2ccc(F)cc2)CC1 was read as HCMV NEC inh -29, GIV Gai3 FP 104, Sa growth inh 85 and Sa growth inh second temp 86.
Cc1ccc2[nH]c3c(=O)n(CCC(=O)N4CCN(c5ccccn5)CC4)cnc3c2c1 was read as HCMV NEC inh -21 and GIV Gai3 FP 108.

Next results
CC(C)(C)c1ccc(NC(=O)C2CC2)c(Cl)c1 was read as HCMV NEC inh 2, GIV Gai3 FP 108, Sa growth inh 106 and Sa growth inh second temp 93.
Screening COc1ccc(-n2cnc3cc(N=Cc4nc5ccccc5n4C)ccc32)cc1 returned GIV Gai3 FP 102, Sa growth inh 106 and Sa growth inh second temp 88.
`CCN(Cc1ccccc1)S(=O)(=O)c1ccc2c(c1)CCCN2C(C)=O` gave GIV Gai3 FP 99, Sa growth inh 87 and Sa growth inh second temp 85.
Screening CCOc1ccc2nc(Nc3nc4c(c(=O)[nH]3)CCCC4)nc(C)c2c1 returned HCMV NEC inh -16, GIV Gai3 FP 106, Sa growth inh 109 and Sa growth inh second temp 89.
Screening CCCOc1ccc(C(=O)NCC2(c3ccc(OC)cc3)CCOCC2)cc1 returned GIV Gai3 FP 104, Sa growth inh 95 and Sa growth inh second temp 78.
`CC(C)c1nc2cc(N)ccc2n1C` gave HCMV NEC inh -14, GIV Gai3 FP 105, Sa growth inh 85 and Sa growth inh second temp 79.
O=c1c2c(Br)c3c(=O)n(CCO)c(=O)c3c(Br)c2c(=O)n1CCO was read as HCMV NEC inh 3, GIV Gai3 FP 113, Sa growth inh 98 and Sa growth inh second temp 96.
For COc1ccc(-c2cc(C(=O)Nc3cccc(C)c3C)nn2C2CCS(=O)(=O)C2)cc1 (stereo unspecified) the results were HCMV NEC inh 4 and GIV Gai3 FP 104.
For COC(=O)c1ccc(NC(=O)C(C)Sc2ncn(-c3ccccc3)n2)cc1 (stereo unspecified) the results were HCMV NEC inh -5, GIV Gai3 FP 102, Sa growth inh 104 and Sa growth inh second temp 86.
N#CCCC(=O)c1ccco1 was read as HCMV NEC inh -11, Sa growth inh 98 and Sa growth inh second temp 92.
O=C(CSC1=NCCS1)Nc1nc(-c2ccccc2)cs1 was read as HCMV NEC inh -24, Sa growth inh 88 and Sa growth inh second temp 97.
Screening CCOC(=O)c1c(-c2ccccc2)oc2ccc(OCC(O)CN(C)C)cc12 (stereo unspecified) returned HCMV NEC inh -16, Sa growth inh 140 and Sa growth inh second temp 57.
`CCOc1ccc(NC(=O)Cn2c(=O)n(-c3cccc(OC)c3)c(=O)c3c4c(sc32)CCCC4)cc1` gave HCMV NEC inh -11, GIV Gai3 FP 101, Sa growth inh 100 and Sa growth inh second temp 84.
Cc1cc(C)c2cccc(N=CC3=C(O)CC(C)(C)CC3=O)c2n1 was read as HCMV NEC inh -12, Sa growth inh 112 and Sa growth inh second temp 94.
Screening CCOc1ccc(NC(=O)c2cc3sccc3n2Cc2ccc(C)cc2)cc1 returned GIV Gai3 FP 109, Sa growth inh 85 and Sa growth inh second temp 86.
Screening CCOc1ccccc1CNC(=O)c1ccc(N2Cc3ccccc3Oc3ncccc32)s1 returned GIV Gai3 FP 108, Sa growth inh 98 and Sa growth inh second temp 93.
`O=c1[nH]c(SCCOc2ccccc2)nc2ccccc12` gave HCMV NEC inh 3, Sa growth inh 124 and Sa growth inh second temp 94.
`Cn1nc(N2CCCCCC2)c(=O)n(C)c1=O` gave HCMV NEC inh -19, Sa growth inh 98 and Sa growth inh second temp 89.
For CCn1c(=Nc2ccc(N3CCOCC3)cc2)ccc2ccccc21 the results were HCMV NEC inh -25, GIV Gai3 FP 99, Sa growth inh 99 and Sa growth inh second temp 110.
Screening CCn1c(SCCCC(=O)c2ccc(Br)cc2)nnc1-c1cccs1 returned HCMV NEC inh 4, Sa growth inh 124 and Sa growth inh second temp 77.
For O=C(CSc1nnc(-c2cccs2)o1)Oc1ccc(Cl)cc1 the results were HCMV NEC inh -19, GIV Gai3 FP 103, Sa growth inh 94 and Sa growth inh second temp 91.
Screening CCC(C)(C(=O)NC1CCCC1)N(C(=O)c1ccccn1)c1ccccc1 (stereo unspecified) returned HCMV NEC inh 12, GIV Gai3 FP 102, Sa growth inh 98 and Sa growth inh second temp 94.
For O=C(Nc1ccc(-c2nc3ccccc3o2)cc1)c1ccc(Br)o1 the results were HCMV NEC inh -23, GIV Gai3 FP 108, Sa growth inh 102 and Sa growth inh second temp 82.
For COc1n[nH]c2nncnc12 the results were HCMV NEC inh -121, GIV Gai3 FP 104, Sa growth inh 109 and Sa growth inh second temp 76.
Screening Cc1c(C(=O)N2CCC(C)CC2)c(S(=O)(=O)N(Cc2ccccc2)C(C)(C)C)c(C)n1C returned GIV Gai3 FP 102, Sa growth inh 83 and Sa growth inh second temp 83.
`c1csc(C2=NN3C(C2)c2ccccc2OC3c2cccs2)c1` (stereo unspecified) gave HCMV NEC inh -11, Sa growth inh 66 and Sa growth inh second temp 63.
COc1cc2c(cc1OC)CN(C(=O)c1ccc(N3C(=O)C(C)CS3(=O)=O)cc1)CC2 (stereo unspecified) was read as HCMV NEC inh -29 and GIV Gai3 FP 107.
Screening COc1ccc2c(c1)c1nnc(-c3ccc(C)cc3)c-1cn2Cc1ccccc1 returned HCMV NEC inh -31 and GIV Gai3 FP 106.
`Cc1nnc2c3ccccc3nc(NCCC3=CCCCC3)n12` gave HCMV NEC inh -12, GIV Gai3 FP 104, Sa growth inh 71 and Sa growth inh second temp 69.
`CCCc1c(C(=O)OCC)[nH]c2c1C(=O)CC(C)(C)C2` gave GIV Gai3 FP 102, Sa growth inh 91 and Sa growth inh second temp 79.
`COC(=O)c1ccc(COC(=O)C(C)N=C2NS(=O)(=O)c3ccccc32)o1` (stereo unspecified) gave HCMV NEC inh -17, Sa growth inh 105 and Sa growth inh second temp 95.
COc1cccc(Nc2sc(C(=O)c3ccc4c(c3)OCO4)c(N)c2S(=O)(=O)c2ccccc2)c1 was read as GIV Gai3 FP 103, Sa growth inh 98 and Sa growth inh second temp 99.
Screening COc1ccccc1CNC(=O)C(=O)NCC(c1ccco1)S(=O)(=O)c1ccc(C)cc1 (stereo unspecified) returned GIV Gai3 FP 95, Sa growth inh 99 and Sa growth inh second temp 89.
Screening O=C(NCc1cccnc1)c1ccc(/C=C2\Sc3ccccc3N(Cc3ccccc3F)C2=O)cc1 returned GIV Gai3 FP 103, Sa growth inh 122 and Sa growth inh second temp 87.
For CC(C)(C)N1C(=O)c2ccc(C(=O)Nc3ccccc3C(=O)O)cc2C1=O the results were HCMV NEC inh -48, GIV Gai3 FP 105, Sa growth inh 109 and Sa growth inh second temp 88.
For CCOC(=O)N1CCC(c2nc(C)sc2C(=O)NCc2ccc(Cl)cc2)CC1 the results were GIV Gai3 FP 97, Sa growth inh 83 and Sa growth inh second temp 84.
For O=c1cc(CSCc2ccc(Cl)cc2)[nH]c(=O)[nH]1 the results were HCMV NEC inh -12, GIV Gai3 FP 105, Sa growth inh 95 and Sa growth inh second temp 86.
`CCOC(=O)c1cc(=O)n2[nH]c(-c3ccc(Br)cc3)cc2n1` gave HCMV NEC inh -16, GIV Gai3 FP 104, Sa growth inh 132 and Sa growth inh second temp 96.
`CCCn1nc(C(=O)N2CC(=O)Nc3ccccc32)c2ccccc2c1=O` gave HCMV NEC inh -6, Sa growth inh 87 and Sa growth inh second temp 96.
CC(C)(C)C1CCc2c(sc(NC(=O)c3ccncc3)c2C(=O)Nc2ccccc2Cl)C1 (stereo unspecified) was read as HCMV NEC inh 16, GIV Gai3 FP 98, Sa growth inh 89 and Sa growth inh second temp 96.
For O=C1CC(/C=C/c2ccncc2)=Nc2ccccc2N1 the results were HCMV NEC inh -29, Sa growth inh 117 and Sa growth inh second temp 91.
Cc1ccc2nc(NNC(=O)c3ccc(S(=O)(=O)N4CC(C)OC(C)C4)cc3)sc2c1 (stereo unspecified) was read as HCMV NEC inh -4, GIV Gai3 FP 105, Sa growth inh 91 and Sa growth inh second temp 29.
CCC(C(=O)O)n1ccc2cc(S(=O)(=O)N3CCCCC3)ccc21 (stereo unspecified) was read as HCMV NEC inh -2, GIV Gai3 FP 99, Sa growth inh 107 and Sa growth inh second temp 87.
Screening CCC(Oc1ccccc1)C(=O)N(C)C (stereo unspecified) returned HCMV NEC inh -11, GIV Gai3 FP 104, Sa growth inh 112 and Sa growth inh second temp 93.
Cc1ccc(OCc2nc(C)c(C(=O)Nc3nnc(C4CC4)s3)s2)cc1C was read as HCMV NEC inh -24 and GIV Gai3 FP 108.
CCOc1ccc(C(=O)NCCc2csc3nc(-c4ccccc4C)nn23)cc1OCC was read as HCMV NEC inh -20 and GIV Gai3 FP 98.

Copied from the entries so far, 6 compounds:
For O=C1CC(/C=C/c2ccncc2)=Nc2ccccc2N1 the results were HCMV NEC inh -29, Sa growth inh 117 and Sa growth inh second temp 91.
Cc1ccc2nc(NNC(=O)c3ccc(S(=O)(=O)N4CC(C)OC(C)C4)cc3)sc2c1 (stereo unspecified) was read as HCMV NEC inh -4, GIV Gai3 FP 105, Sa growth inh 91 and Sa growth inh second temp 29.
CCC(C(=O)O)n1ccc2cc(S(=O)(=O)N3CCCCC3)ccc21 (stereo unspecified) was read as HCMV NEC inh -2, GIV Gai3 FP 99, Sa growth inh 107 and Sa growth inh second temp 87.
Screening CCC(Oc1ccccc1)C(=O)N(C)C (stereo unspecified) returned HCMV NEC inh -11, GIV Gai3 FP 104, Sa growth inh 112 and Sa growth inh second temp 93.
Cc1ccc(OCc2nc(C)c(C(=O)Nc3nnc(C4CC4)s3)s2)cc1C was read as HCMV NEC inh -24 and GIV Gai3 FP 108.
CCOc1ccc(C(=O)NCCc2csc3nc(-c4ccccc4C)nn23)cc1OCC was read as HCMV NEC inh -20 and GIV Gai3 FP 98.
